Assay outcomes from PubChem.
VACV Venus inh – vaccinia inhibition (Venus reporter) | Vaccinia virus Venus reporter expression, fluorescence | Potency, µM (top dose mostly 36.5 µM), inactives show at the top dose activity change, negative = inhibition, usual class: inhibitors | 330,000 compounds, 0.46% hits; active means well fitted inhibition curve with a large enough effect; inconclusive means small, poorly fitted or top-dose-only effect; inactive means no such curve, though single readings can be large or run the other way; tested in A549 cells; further: nearly all actives have a fitted effect of over 30% in size; inactives centre near -10
Vaccinia mCherry – vaccinia inhibition (mCherry reporter). 310,000 compounds, 0.63% hits. Potency, µM (titrated, usually from 36.5 µM), for the others: at the highest dose activity change, negative = inhibition, usual class: inhibitors. Vaccinia virus mCherry reporter infection, fluorescence; about a quarter of the inactives have no number; active = well fitted inhibition curve with a large enough effect; inconclusive = small, poorly fitted or top-dose-only effect; inactive = no such curve, though single readings can be large or run the other way; tested in A549 cells; further: nearly all actives have a fitted effect of over 35% in size; inactives centre near -10
Active calls of the source: *; & = joins results of further samples; [ ] = remark or other dose. On the % scale 0 is the no-effect control and ±100 the full control effect; potency means the concentration at half of the fitted maximal effect.

Results for COc1ccc(S(=O)(=O)N2CCN(C(=O)[C@@H]3CCC(=O)N3C3OC(=O)c4ccccc43)CC2)cc1 (stereo not given in full) ?
VACV Venus inh: 5%; Vaccinia mCherry: -6%

What do the screens show for `COc1ccc(CC(NC(C)=O)C(=O)NC2CCN(c3c4c(nc5ncnn35)CCC4)CC2)cc1` (stereo not given)?
VACV Venus inh: -2%; Vaccinia mCherry: -12%

How did COc1ccccc1OCc1nnc(SCC(=O)NCc2ccco2)n1Cc1ccco1 do in these assays?
VACV Venus inh: -3%; Vaccinia mCherry: inactive

Results for COc1ccc(CN2C(=O)c3ccccc3C2=O)cc1C(=O)Nc1ccc(C)cc1C ?
VACV Venus inh: -18%; Vaccinia mCherry: -22%

Results for Cc1[nH]c2ccccc2c1C(=O)CNc1nccs1 ?
VACV Venus inh: -2%; Vaccinia mCherry: inactive

What do the screens show for `Cc1nnc(N(C)C(=O)c2ccncc2)s1`?
VACV Venus inh: -7%; Vaccinia mCherry: -18%

How did COc1cccc(/C=C2\C=C(c3ccc(C)cc3)OC2=O)c1OC(C)=O do in these assays?
VACV Venus inh: -15%; Vaccinia mCherry: inconclusive

What do the screens show for `CCCCn1c(O)c2n(c1=O)Cc1ccccc1N=C2c1ccc(OC)cc1`?
VACV Venus inh: 7%; Vaccinia mCherry: 7%

What do the screens show for `CCN(C(=O)CSc1nnc(COc2ccccc2F)n1N)C1CCS(=O)(=O)C1` (stereo not given)?
VACV Venus inh: -4%; Vaccinia mCherry: -6%

What do the screens show for `Cc1ccc(CC2CC(=O)N(c3ccc(C)cc3)C2=O)cc1` (stereo not given)?
VACV Venus inh: -2%; Vaccinia mCherry: inactive

What do the screens show for `Cc1csc(NC(=O)CSc2nnc(C)c(=O)n2N)n1`?
VACV Venus inh: -5%; Vaccinia mCherry: inactive

How did CC(=O)c1ccc(N(C(=O)CNC(=O)c2ccco2)C(C(=O)NC2CCCC2)c2ccco2)cc1 (stereo not given) do in these assays?
VACV Venus inh: -5%; Vaccinia mCherry: -2%

Pulled one by one from the entries so far (5):
What do the screens show for `CCCCn1c(O)c2n(c1=O)Cc1ccccc1N=C2c1ccc(OC)cc1`?
VACV Venus inh: 7%; Vaccinia mCherry: 7%

What do the screens show for `Cc1csc(NC(=O)CSc2nnc(C)c(=O)n2N)n1`?
VACV Venus inh: -5%; Vaccinia mCherry: inactive

Results for COc1ccc(CN2C(=O)c3ccccc3C2=O)cc1C(=O)Nc1ccc(C)cc1C ?
VACV Venus inh: -18%; Vaccinia mCherry: -22%

How did COc1cccc(/C=C2\C=C(c3ccc(C)cc3)OC2=O)c1OC(C)=O do in these assays?
VACV Venus inh: -15%; Vaccinia mCherry: inconclusive

How did COc1ccccc1OCc1nnc(SCC(=O)NCc2ccco2)n1Cc1ccco1 do in these assays?
VACV Venus inh: -3%; Vaccinia mCherry: inactive

Next compounds follow.
Results for CS(=O)(=O)N(C(=O)NC(=O)NC1CCS(=O)(=O)C1)C1CCCCC1 (stereo not given) ?
VACV Venus inh: -12%; Vaccinia mCherry: -12%

What do the screens show for `O=C(CCl)Nc1sccc1C(=O)c1ccccc1`?
VACV Venus inh: -9%; Vaccinia mCherry: -10%

Results for Cc1ccc2ccc(C(Nc3cccc(C(F)(F)F)c3)c3cccnc3)c(O)c2n1 (stereo not given) ?
VACV Venus inh: -25%; Vaccinia mCherry: -11%

What do the screens show for `COc1ccccc1C(=O)N/N=C/C(C)=C/c1ccccc1`?
VACV Venus inh: -7%; Vaccinia mCherry: inactive

What do the screens show for `COc1ccc(/C=C/C(=O)c2ccc(OC)cc2O)cc1`?
VACV Venus inh: -13%; Vaccinia mCherry: inactive

What do the screens show for `N#Cc1ccccc1NC(=O)CN1CCN(c2ccccn2)CC1`?
VACV Venus inh: -11%; Vaccinia mCherry: inactive

Results for CCOC(=O)c1cc(CC)sc1NC(=O)CN1C(=O)C(=O)N(CC(C)C)C1=O ?
VACV Venus inh: -9%; Vaccinia mCherry: inactive

How did CN(c1ccccc1C(=O)Nc1ccc(S(=O)(=O)N2CCOCC2)cc1)S(=O)(=O)c1ccccc1 do in these assays?
VACV Venus inh: -8%; Vaccinia mCherry: -4%

How did Cc1cccc(Cn2c(Cc3ccccc3)nc3ccccc32)c1 do in these assays?
VACV Venus inh: 5%&-1%; Vaccinia mCherry: 2%&-17%

Results for COc1ccccc1N(C1=NCCCS1)S(=O)(=O)c1ccc(C(C)(C)C)cc1 ?
VACV Venus inh: -7%; Vaccinia mCherry: -12%

Results for C[C@H]1CN([C@@H](C)CO)C(=O)CCCn2cc(nn2)CO[C@@H]1CN(C)C(=O)Cc1ccccc1 ?
VACV Venus inh: -15%; Vaccinia mCherry: -9%

Results for O=[N+]([O-])c1cc(-c2cccnc2)n[nH]1 ?
VACV Venus inh: 3%; Vaccinia mCherry: -14%

How did O=C(COC(=O)CCN1C(=O)c2ccccc2C1=O)Nc1ccccc1[N+](=O)[O-] do in these assays?
VACV Venus inh: -13%; Vaccinia mCherry: inactive

What do the screens show for `O=C(Cn1cc([N+](=O)[O-])cn1)N1CCN(c2ccccc2)CC1`?
VACV Venus inh: -11%; Vaccinia mCherry: -18%

Results for COc1ccc(NC(=O)Nc2ccc(OC)cc2)cc1 ?
VACV Venus inh: -5%; Vaccinia mCherry: -11%

Results for Cc1nn(C)c(C)c1NC(=O)CCl ?
VACV Venus inh: inconclusive; Vaccinia mCherry: inconclusive

What do the screens show for `COc1ccc(CC(C)NS(=O)(=O)c2ccc3c(c2)CCN3S(C)(=O)=O)cc1OC` (stereo not given)?
VACV Venus inh: -18%&-2%; Vaccinia mCherry: -22%&-2%

Results for Cc1ccc(C(=O)NC(=S)Nc2ccccc2C)cc1 ?
VACV Venus inh: -8%; Vaccinia mCherry: -15%

How did COCCN1C[C@@H](CO)O[C@@H](n2cnc3c(NCC(C)C)ncnc32)C1 do in these assays?
VACV Venus inh: -4%; Vaccinia mCherry: inactive

Results for CC[C@@H](C(=O)[C@@H](C)[C@@H](O)[C@H](C)CCc1ccc(C)c(O)c1C(=O)O)[C@H]1O[C@](CC)([C@H]2CC[C@](O)(CC)[C@H](C)O2)C[C@@H]1C ?
VACV Venus inh: 10µM*; Vaccinia mCherry: inconclusive

Results for COc1cc(NC(=O)c2cc3ccccc3o2)c(OC)cc1Cl ?
VACV Venus inh: -1%

Results for CCOc1ccc(-n2c(-c3ccc(OC)cc3)cc3c2CC(C)(C)CC3=O)cc1 ?
VACV Venus inh: -11%; Vaccinia mCherry: -10%

Results for CSc1ccc(/C=C/C(=O)c2ccc(NC(=O)C(C)C)cc2)cc1 ?
VACV Venus inh: -26%

Results for COc1ccc(NC(=O)CN2CCN(CC(=O)Nc3ccc4c(c3)OCO4)CC2)cc1 ?
VACV Venus inh: 3%

Structures above that have a furan ring, fused or not, in the order listed:
How did COc1ccccc1OCc1nnc(SCC(=O)NCc2ccco2)n1Cc1ccco1 do in these assays?
VACV Venus inh: -3%; Vaccinia mCherry: inactive

How did CC(=O)c1ccc(N(C(=O)CNC(=O)c2ccco2)C(C(=O)NC2CCCC2)c2ccco2)cc1 (stereo not given) do in these assays?
VACV Venus inh: -5%; Vaccinia mCherry: -2%

Results for COc1cc(NC(=O)c2cc3ccccc3o2)c(OC)cc1Cl ?
VACV Venus inh: -1%

The results go on:
What do the screens show for `C#CCNC(=O)C1=C[C@@H](C(C)(C)C)C[C@@H](OCc2ccc(CO)cc2)O1`?
VACV Venus inh: -12%; Vaccinia mCherry: inactive

Results for CCCn1c(C2CCCN2c2nc(C)cs2)nc2cc(Cl)c(Cl)cc21 (stereo not given) ?
VACV Venus inh: inconclusive; Vaccinia mCherry: -28%

Results for CSc1cccc(NC(=O)OC2CCCCCCCCCCC2)c1 ?
VACV Venus inh: -11%; Vaccinia mCherry: inactive

How did CCn1nc(NC(=O)Cc2ccc(OC)cc2)c2cc3cccc(C)c3nc21 do in these assays?
VACV Venus inh: 0%[7.34 µM]; Vaccinia mCherry: inactive[7.34 µM]

Results for CCOc1ccc(-c2cc(-c3nc(-c4cc(OC)c(OC)c(OC)c4)no3)[nH]n2)cc1 ?
VACV Venus inh: -8%; Vaccinia mCherry: -14%

What do the screens show for `O=C(Nc1ccc(N2CCCCC2)cc1)c1ccccc1`?
VACV Venus inh: -18%; Vaccinia mCherry: -21%

What do the screens show for `COc1ccc(N2CCN(S(=O)(=O)CCNC(=O)COc3ccccc3C)CC2)cc1`?
VACV Venus inh: -1%; Vaccinia mCherry: -12%

What do the screens show for `O=S(=O)(c1ccc(NC(=S)NN=C2CCCCC2)cc1)N1CCOCC1`?
VACV Venus inh: -8%; Vaccinia mCherry: -5%

How did COc1ccc(CCNC(=O)c2ccc(OCC(=O)N3CCOCC3)c(OC)c2)cc1OC do in these assays?
VACV Venus inh: -9%; Vaccinia mCherry: inactive

How did Cc1ccc(CSc2ncc(Cl)c(C(=O)Oc3ccccc3F)n2)cc1 do in these assays?
VACV Venus inh: -9%; Vaccinia mCherry: -14%

How did Cc1cc(C)c(C#N)c(SC(C(=O)NC(C)(C)C)c2ccccc2)n1 (stereo not given) do in these assays?
VACV Venus inh: -14%; Vaccinia mCherry: -9%

How did CC(=O)N1CCCc2cc(S(=O)(=O)N(CCN(C)C)Cc3ccccc3)ccc21 do in these assays?
VACV Venus inh: -2%; Vaccinia mCherry: 0%

Results for Brc1cccc(CNCc2ccncc2)c1 ?
VACV Venus inh: -3%; Vaccinia mCherry: inactive

What do the screens show for `Cc1ccc(C2CCN(C(=S)NC(C)C)C2)cc1` (stereo not given)?
VACV Venus inh: 5%; Vaccinia mCherry: -7%

What do the screens show for `O=[N+]([O-])c1cccnc1N1CCN(Cc2ccc3c(c2)OCO3)CC1`?
VACV Venus inh: -15%; Vaccinia mCherry: -6%

Results for CC1(N2CCOCC2)C(=O)c2ccccc2C1=O ?
VACV Venus inh: 4%; Vaccinia mCherry: inactive

How did Cc1ccc(NC(=O)C[n+]2ccn(C3=C([O-])c4ccccc4C3=O)c2)cc1 do in these assays?
VACV Venus inh: -8%; Vaccinia mCherry: -1%

Results for CCc1nn(CC(=O)N2CCN(c3cccc(C)c3C)CC2)c(=O)c2cc3sccc3n12 ?
VACV Venus inh: -4%; Vaccinia mCherry: -15%

What do the screens show for `O=C(NCC1CCCO1)c1cccc(F)c1` (stereo not given)?
VACV Venus inh: -19%

Results for COc1ccc(N2C(=O)Cc3c2nc(N)c(C#N)c3N)cc1 ?
VACV Venus inh: -11%; Vaccinia mCherry: -22%

What do the screens show for `CCOc1ccccc1NC(=O)CN1C(=O)C2(SCC(=O)N2c2ccc(C)cc2)c2ccccc21` (stereo not given)?
VACV Venus inh: inconclusive; Vaccinia mCherry: -26%

What do the screens show for `CCCCC(=O)Nc1ccc(C(=O)NNC(=S)NC(=O)c2cccs2)cc1`?
VACV Venus inh: -2%; Vaccinia mCherry: inactive

How did CC(C)CC(=O)Nc1ccc(-c2cn3ccsc3n2)cc1 do in these assays?
VACV Venus inh: inconclusive

What do the screens show for `Cc1c(C(=O)Nc2ccccc2)sc2nc[nH]c(=O)c12`?
VACV Venus inh: -9%; Vaccinia mCherry: inactive

Results for O=C(CSc1nc2ccccc2n1CC(=O)N1CCOCC1)N1CCCC1 ?
VACV Venus inh: -3%; Vaccinia mCherry: -7%

What do the screens show for `COc1cc(/C=N/N2CCOCC2)ccc1OCc1ccccc1`?
VACV Venus inh: -23%; Vaccinia mCherry: -20%

How did CC(C)[C@H](NC(=O)c1ccccc1)C(=O)OCC(=O)NCCc1ccc(F)cc1 do in these assays?
VACV Venus inh: -1%; Vaccinia mCherry: -8%

Results for CCOC(=O)C(NC(=O)NCc1ccc(OC)cc1)(OCC)C(F)(F)F (stereo not given) ?
VACV Venus inh: -7%; Vaccinia mCherry: -17%

How did CC(CN1CCCC1)OC(=O)COc1ccccc1 (stereo not given) do in these assays?
VACV Venus inh: -1%; Vaccinia mCherry: -12%

How did C#Cc1cccc(C(=O)NCc2nc(-c3ccccc3NC(C)=O)oc2C)c1 do in these assays?
VACV Venus inh: -11%; Vaccinia mCherry: -12%

Results for Cc1ccc(S(=O)(=O)N2CCN(S(=O)(=O)c3ccccc3)C2)cc1 ?
VACV Venus inh: -2%; Vaccinia mCherry: inactive

What do the screens show for `CC(=O)NS(=O)(=O)c1ccc(NC(=O)c2cccc3ccccc23)cc1`?
VACV Venus inh: 5%; Vaccinia mCherry: -8%

How did C=CCn1c(SCC(=O)N2CC(=O)Nc3ccccc32)nc2scc(-c3ccccc3)c2c1=O do in these assays?
VACV Venus inh: -29%; Vaccinia mCherry: -18%

Results for Cc1cccc(NC(=S)NC2CCCC2)c1 ?
VACV Venus inh: -1%; Vaccinia mCherry: inactive

What do the screens show for `CC(C)OC(=O)/C(C#N)=C/c1ccc(-c2ccc(SC(F)F)cc2)o1`?
VACV Venus inh: -7%; Vaccinia mCherry: -11%

Results for CCC(C)NC(=O)C(NS(=O)(=O)c1cccc2nsnc12)c1ccccc1 (stereo not given) ?
VACV Venus inh: -7%; Vaccinia mCherry: -9%

What do the screens show for `COc1ccc(-c2cc(C(F)(F)F)nc(SCCC(=O)Nc3ccc(NC(C)=O)cc3)n2)cc1`?
VACV Venus inh: -22%; Vaccinia mCherry: -16%

Results for CCCC(=O)Nc1ccc(C(=O)NNC(=S)NC(=O)c2cccs2)cc1 ?
VACV Venus inh: -13%; Vaccinia mCherry: inconclusive

What do the screens show for `O=S(=O)(Nc1cccc(-c2ccc(N3CCCCC3)nn2)c1)c1ccc(F)cc1F`?
VACV Venus inh: -9%; Vaccinia mCherry: -5%

What do the screens show for `CN(CC(=O)Nc1ccccc1C(F)(F)F)C(=O)c1cc([N+](=O)[O-])ccc1N1CCOCC1`?
VACV Venus inh: -13%; Vaccinia mCherry: -10%

Results for Cc1ccc(NC(=O)Cn2c(-c3cncs3)nc3ccccc32)cc1Br ?
VACV Venus inh: -14%; Vaccinia mCherry: -2%
